YB-1 expression – inhibitors of YB-1 gene expression, primary screen, cell-based, fluorescence; U2OS, qRT-PCR YB-1 vs CDIP delta delta Cp, 16 h; stronger effect = higher value; zero = DMSO, each unit about twofold; delta delta Cp (YB-1 minus CDIP) (no concentration beside the values); hit rate 0.37% among 30,000; AID 434959, 2010;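 active means delta delta Cp rounded down to an integer at or above 3, about 3 SD of DMSO wells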;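 further: higher means less YB-1 transcript or more CDIP transcript relative to DMSO; stock transfer was 100 nL into about 100 µL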
* marks the source's active call; other numbers are inactive results.

SMILES	YB-1 expression
C[C@@H]1CN([C@@H](C)CO)C(=O)CCCn2nncc2CO[C@@H]1CN(C)S(C)(=O)=O	0.065
O=C(N1CCCCC1)[C@]1(Cc2ccccc2)N=C(c2ccc(OCCCO)cc2)O[C@@H]1c1ccccc1	0.33
COc1ccc(C#Cc2ccc3c(c2)[C@]2(C(=O)N3)[C@H](c3ccc(O)cc3)N3[C@H](c4ccccc4)[C@H](c4ccccc4)OC(=O)[C@H]3[C@@H]2C(=O)N2CCN(c3ncccn3)CC2)cc1	-0.27
CN(C)CCCN1C(=O)[C@@]2(Cc3ccccc31)c1ccccc1C(=O)N(Cc1ccccc1C(F)(F)F)[C@H]2c1ccc(CO)cc1	-0.23
Cc1ccc(OC(=O)N(C)C[C@H]2OCc3cn(nn3)CCCC(=O)N([C@@H](C)CO)C[C@@H]2C)cc1	0.067
O=C(NO)c1ccc(C(=O)N/N=C/c2cccnc2)cc1	0.47
O=C(CCCCC(=O)N/N=C/c1ccc(C(F)(F)F)cc1)NO	0.35
C[C@H](CO)N1C[C@H](C)[C@H](CN(C)Cc2cccc3c2OCCCO3)OCc2cn(nn2)CCCC1=O	-0.52
C[C@@H]1CN([C@H](C)CO)C(=O)CCCn2cc(nn2)CO[C@@H]1CN(C)Cc1ccc2c(c1)OCCN2C	0.13
[N-]=[N+]=Nc1ccccc1C[C@@]1(C(=O)N2CCOCC2)N=C(c2ccc(OCCCO)cc2)O[C@@H]1c1ccccc1	0.23
O=C(N/N=C/c1ccncc1Br)c1ccccn1	-0.2
CNC[C@@H]1Oc2ncc(C#Cc3ccc(OC)c(OC)c3)cc2C(=O)N([C@H](C)CO)C[C@@H]1C	0.12

Continued:
SMILES	YB-1 expression
C=CCN1C(=O)[C@]2(O[C@H](CCO)[C@@H]([Si](C)(C)c3ccc(OC)cc3)[C@@H]2C)c2cc(N3CCCCC3=O)ccc21	-0.13
O=C(CCCCCC(=O)Nc1ccccc1O)N/N=C/c1cc(F)ccc1O	-0.34
O=C(NO)c1ccc(C(=O)N/N=C/c2ccc(Br)cc2)cc1	-0.43
C=CCOC(=O)[C@H]1[C@@H]2C(=O)O[C@@H](c3ccccc3)[C@@H](c3ccccc3)N2[C@@H](c2ccc(OCCOC(=O)[C@@H]3C[C@@H]4C(=O)N5CCC[C@H]5C(=O)N4[C@@H]3c3ccc(O)cc3)cc2)[C@]12C(=O)Nc1ccc(I)cc12	-0.15
CC1(C)COC(CCC/C=N/NC(=O)CCCCCCC(=O)Nc2ccccc2O)OC1	0.088
COc1cccc(S(=O)(=O)N(C)C[C@@H]2Oc3ncc(Br)cc3C(=O)N([C@H](C)CO)C[C@@H]2C)c1	0.046
CC(C)NC(=O)N(C)C[C@@H]1OCc2cn(nn2)CCCC(=O)N([C@@H](C)CO)C[C@@H]1C	0.078
C[C@@H]1CN([C@H](C)CO)C(=O)CCCn2cc(nn2)CO[C@H]1CN(C)Cc1ccccc1	-0.37
CC1(C)[C@H]2CC=C(/C=N\NC(=O)CCCCCC(=O)O)[C@@H]1C2	-0.58
Cc1ccc(S(=O)(=O)N(C)C[C@@H]2Oc3ncc(C#Cc4cccc(F)c4)cc3C(=O)N([C@H](C)CO)C[C@@H]2C)cc1	-0.43
COC(=O)[C@]1(CO)N=C(c2ccc(OCCCO)cc2)O[C@@H]1c1ccccc1N=[N+]=[N-]	-0.17
COc1ccc(C#Cc2cnc3c(c2)C(=O)N([C@H](C)CO)C[C@H](C)[C@H](CN(C)S(=O)(=O)c2ccc(F)cc2)O3)cc1OC	-0.28

New compounds follow
SMILES	YB-1 expression
O=C1O[C@@H](c2ccccc2)[C@@H](c2ccccc2)N2[C@@H](c3ccc(OCCO)cc3)[C@]3(C(=O)Nc4ccc(C#CCCO)cc43)[C@@H](C(=O)NC[C@H](O)c3ccccc3)[C@H]12	0.054
C[C@H](CO)N1C[C@H](C)[C@H](CN(C)Cc2ccc3c(c2)OCO3)OCc2cnnn2CCCC1=O	0.19
Cc1ccc(O)c(/C=N/NC(=O)c2ccccc2O)c1	0.15
[N-]=[N+]=Nc1ccccc1C[C@]1(C(=O)NCCN2CCOCC2)N=C(c2ccc(OCCCO)cc2)O[C@H]1c1ccccc1N=[N+]=[N-]	-0.2
CC(C)(C)OC(=O)NC1(/C=N/NC(=O)c2ccc(C(=O)NO)cc2)CCCC1	0.4
C[C@@H]1CN([C@@H](C)CO)C(=O)CCCn2cc(nn2)CO[C@@H]1CN(C)S(=O)(=O)c1cccc(C#N)c1	-0.2
O=S(=O)(c1cc(C(F)(F)F)ccc1Cl)N1CCN(Cc2ccc(OCCO)cc2)CC1	0.24
COc1ccc(Br)cc1/C=N/NC(=O)c1ccccc1O	0.24
Cc1ccc(S[C@]2(C(=O)NCc3ccccc3)CC(=O)N(C3CCCCC3)[C@@H]2c2ccc(CO)cc2I)cc1	-0.27
COc1cc2c(cc1OC)CN(C(=O)[C@H]1[C@@H]3C(=O)O[C@@H](c4ccccc4)[C@@H](c4ccccc4)N3[C@@H](c3ccc(OCCO)cc3)[C@]13C(=O)Nc1ccccc13)CC2	-0.58
C[C@H]1CN([C@@H](C)CO)C(=O)CCCn2cc(nn2)CO[C@@H]1CN(C)S(=O)(=O)c1ccc2ccccc2c1	0.27
C[C@H](CO)N1C[C@H](C)[C@H](CN(C)C(=O)c2ccncc2)OCc2cn(nn2)CCCC1=O	-0.13

Following part.
SMILES	YB-1 expression
O=C(O)CCCCCCC(=O)N/N=C/c1cn(S(=O)(=O)c2ccccc2)c2ccccc12	-0.16
CCCCCCC/C=N/NC(=O)c1ccccc1O	0.13
COC(=O)C(CC#Cc1ccc2c(c1)[C@]1(C(=O)N2)[C@H](C(N)=O)[C@H]2C(=O)O[C@H](c3ccccc3)[C@H](c3ccccc3)N2[C@@H]1c1ccc(OCCO)cc1)C(=O)OC	0.17
C[C@@H]1CN([C@H](C)CO)C(=O)CCCn2nncc2CO[C@H]1CN(C)C	0.2
Cc1noc(C)c1NC(=O)N(C)C[C@H]1OCc2cn(nn2)CCCC(=O)N([C@@H](C)CO)C[C@H]1C	0.067
O=C(N/N=C/c1cc2ccccc2n1S(=O)(=O)c1ccccc1)c1ccccn1	-0.28
COc1cccc(-c2cnc3c(c2)C(=O)N([C@H](C)CO)C[C@H](C)[C@H](CN(C)C(=O)NC(C)C)O3)c1	-0.031
COCCOC(=O)N1C(=O)[C@@]2(c3cc(C#CCC(C(=O)OC)C(=O)OC)ccc31)[C@H](c1ccccc1OCCO)N1[C@H](c3ccccc3)[C@H](c3ccccc3)OC(=O)[C@H]1[C@@H]2C(=O)Nc1nc2ccccc2s1	0.27
O=C(NO)c1ccc(C(=O)N/N=C/c2ccc3c(c2)CCO3)cc1	0.34
COc1cc2c(cc1O)C(C1CC1)N(Cc1cc3c(cc1Br)OCO3)CC2 (stereo not drawn)	0.65
C[C@@H]1CN([C@@H](C)CO)C(=O)CCCn2cc(nn2)CO[C@H]1CN(C)C(=O)OCc1ccccc1	0.055
CNC[C@H]1OCc2cn(nn2)CCCC(=O)N([C@H](C)CO)C[C@@H]1C	0.31

Additional structures follow:
SMILES	YB-1 expression
C[C@H](CO)N1C[C@H](C)[C@H](CN(C)Cc2ccc(O)cc2)OCc2cn(nn2)CCCC1=O	-0.2
COC(=O)CCCCCCC(=O)N=NC=C1C=CN(O)C=C1	-0.28
O=C1O[C@@H](c2ccccc2)[C@@H](c2ccccc2)N2[C@@H](c3ccc(O)cc3)[C@]3(C(=O)Nc4ccc(C#CCCO)cc43)[C@@H](C(=O)N3CCCCCCC3)[C@H]12	-0.17
CN(C)C(=O)[C@]1(Cc2ccccc2)N=C(c2ccc(OCCCO)cc2)O[C@@H]1c1ccccc1	-0.13
C[C@H]1CN([C@@H](C)CO)C(=O)CCCn2nncc2CO[C@H]1CN(C)S(=O)(=O)c1ccc(Oc2ccccc2)cc1	0.15
C[C@@H]1CN([C@@H](C)CO)C(=O)CCCn2cc(nn2)CO[C@@H]1CN(C)C(=O)CCC(F)(F)F	-0.11
C=CCOC(=O)[C@H]1[C@@H]2C(=O)O[C@@H](c3ccccc3)[C@@H](c3ccccc3)N2[C@@H](c2ccc(OCCOC(=O)[C@@H]3C[C@@H]4C(=O)N[C@@H](Cc5ccccc5)C(=O)N4[C@@H]3c3cccc(OCCO)c3)cc2)[C@]12C(=O)Nc1ccccc12	-0.011
Cc1ccc(S(=O)(=O)N(C)C[C@@H]2Oc3ncc(C#Cc4ccc(C(F)(F)F)cc4)cc3C(=O)N([C@H](C)CO)C[C@@H]2C)cc1	-0.51
CNC[C@H]1OCc2cn(nn2)CCCC(=O)N([C@@H](C)CO)C[C@@H]1C	-0.4
COCCOC(=O)N1C(=O)[C@@]2(c3cc(C#CC4=CCCCC4)ccc31)[C@H](c1ccccc1OCCO)N1[C@H](c3ccccc3)[C@H](c3ccccc3)OC(=O)[C@H]1[C@@H]2C(N)=O	-0.06
C[C@@H]1CN([C@H](C)CO)C(=O)CCCn2nncc2CO[C@@H]1CN(C)C(=O)C1CCCCC1	0.18
C[C@H]1CN([C@@H](C)CO)C(=O)CCCn2cc(nn2)CO[C@@H]1CN(C)Cc1ccc2c(c1)OCCO2	-0.094

(list continues)
SMILES	YB-1 expression
C[C@@H]1CN([C@@H](C)CO)C(=O)CCCn2cc(nn2)CO[C@@H]1CN(C)C(=O)Nc1ccc(C(F)(F)F)cc1	0.14
COc1ccccc1CN1C(=O)c2ccccc2[C@](Cc2ccccc2I)(C(=O)NCCCN(C)C)[C@@H]1c1ccc(CO)cc1	0.025
Cc1ccccc1S(=O)(=O)N(C)C[C@H]1OCc2cn(nn2)CCCC(=O)N([C@@H](C)CO)C[C@@H]1C	0.17
Cc1[nH]cnc1/C=N/NC(=O)c1ccccn1	-0.023
C[C@@H]1CN([C@@H](C)CO)C(=O)CCCn2cc(nn2)CO[C@H]1CN(C)C(=O)c1ccc2ccn(C)c2c1	-0.19
COc1ccc([Si](C)(C)[C@@H]2[C@@H](CCO)O[C@]3(C(=O)N(Cc4ccccc4)c4ccc(NC(C)=O)cc43)[C@H]2C)cc1	0.45
COC(=O)CCCCCCC(=O)N/N=C/c1ccc(OCCO)cc1	0.015
CC(C)OC(=O)N(C)C[C@@H]1OCc2cn(nn2)CCCC(=O)N([C@H](C)CO)C[C@H]1C	-0.42
C[C@H](CO)N1C[C@H](C)[C@H](CN(C)S(=O)(=O)c2ccc(C#N)cc2)Oc2ncc(-c3cc4ccccc4o3)cc2C1=O	-0.27
O=C(N1CCOCC1)[C@]1(Cc2ccccc2)N=C(c2ccc(OCCCO)cc2)O[C@@H]1c1ccccc1	-1.4
Cc1ccccc1S(=O)(=O)N(C)C[C@H]1OCc2cnnn2CCCC(=O)N([C@H](C)CO)C[C@H]1C	0.045
C=CC[C@]1(C(=O)OC)N=C(c2ccc(OCCCO)cc2)O[C@H]1c1ccccc1	-0.52

Entries above containing bromine:
SMILES	YB-1 expression
O=C(N/N=C/c1ccncc1Br)c1ccccn1	-0.2
O=C(NO)c1ccc(C(=O)N/N=C/c2ccc(Br)cc2)cc1	-0.43
COc1cccc(S(=O)(=O)N(C)C[C@@H]2Oc3ncc(Br)cc3C(=O)N([C@H](C)CO)C[C@@H]2C)c1	0.046
COc1ccc(Br)cc1/C=N/NC(=O)c1ccccc1O	0.24
COc1cc2c(cc1O)C(C1CC1)N(Cc1cc3c(cc1Br)OCO3)CC2 (stereo not drawn)	0.65

Further results follow:
SMILES	YB-1 expression
O=C(CCCCCCC(=O)Nc1ccccc1O)N/N=C/c1ccc(Oc2ccccc2)cc1	-0.2
COC(=O)CCCCCCC(=O)N/N=C/c1ccc(Br)cc1	-0.099
COc1ccc(O)c(/C=N/NC(=O)CCCCC(=O)NO)c1	-0.28
C[C@H](CO)N1C[C@H](C)[C@H](CN(C)Cc2ccccc2)Oc2ncc(-c3ccc(F)cc3)cc2C1=O	0.21
C[C@@H]1CN([C@@H](C)CO)C(=O)CCCn2nncc2CO[C@@H]1CN(C)C(=O)Nc1ccnc(N2CCOCC2)c1	-0.29
O=C(CCCCCCC(=O)Nc1ccccc1O)N/N=C/[C@H](O)[C@@H](O)[C@H](O)[C@H](O)CO[C@H]1O[C@H](CO)[C@H](O)[C@H](O)[C@H]1O	0.23
C[C@@H]1CN([C@H](C)CO)C(=O)CCCn2cc(nn2)CO[C@H]1CN(C)Cc1ccc2c(c1)OCO2	0.11
COC(=O)CCCCCCC(=O)N/N=C/c1c(F)c(F)c(F)c(F)c1F	0.03
C=CCNC(=O)[C@H]1[C@@H]2C(=O)O[C@@H](c3ccccc3)[C@@H](c3ccccc3)N2[C@@H](c2ccc(OCCO)cc2)[C@]12C(=O)N(C(=O)OCCOC)c1ccc(C#CC3=CCCCC3)cc12	0.0068
CC(C)NC(=O)[C@@]1(C)c2ccccc2C(=O)N(Cc2cc(C(F)(F)F)cc(C(F)(F)F)c2)[C@H]1c1ccc(CO)cc1	0.12
COc1ccc([Si](C)(C)[C@H]2[C@H](CCO)O[C@@]3(C(=O)N(Cc4ccccc4)c4ccc(N5CCC5=O)cc43)[C@@H]2C)cc1	-0.017
C[C@H](CO)N1C[C@H](C)[C@H](CN(C)Cc2ccncc2)Oc2ncc(-c3cc4ccccc4o3)cc2C1=O	-0.16
C[C@H](CO)N1C[C@H](C)[C@H](CN(C)S(=O)(=O)c2ccccc2)Oc2ncc(C#CCN(C)C)cc2C1=O	-0.032
C[C@@H]1CN([C@@H](C)CO)C(=O)CCCn2cc(nn2)CO[C@H]1CN(C)C(=O)c1ccccc1	0.25

Source: PubChem (Broad Institute)

Only part of the results is shown, so the mix of outcomes need not match the whole.
